Source: PubChem (SRMLSC)
H5N1 CPE: MDCK cell protection from H5N1 avian flu; cytopathic effect, luminescence, 72 h; active compounds read high; no value below 0 was filed and about half of the inactive calls have no number; reference of the scale not given here; inhibition, % at 50 µM; 96,000 compounds, 0.07% hits; AID 740, 2007; in the data active means inhibition above about 25%
* hit, by the source's call; i = inactive.

The first 4 records as a preview:
SMILES	H5N1 CPE
Fc1ccccc1Cn1nnc2c(-n3ccnc3)ncnc21	i
COc1cc2nc(SCc3ccc(C(F)(F)F)cc3)n(Cc3cccs3)c(=N)c2cc1OC	i
COc1cc(C(=O)Nc2ccccn2)cc(OC)c1OC	1.8
CCOC(=O)Cc1csc(NC(=O)CCc2ccc(S(=O)(=O)N3CCOCC3)cc2)n1	4.6

Results, previewed entries included:
SMILES	H5N1 CPE
Fc1ccccc1Cn1nnc2c(-n3ccnc3)ncnc21	i
COc1cc2nc(SCc3ccc(C(F)(F)F)cc3)n(Cc3cccs3)c(=N)c2cc1OC	i
COc1cc(C(=O)Nc2ccccn2)cc(OC)c1OC	1.8
CCOC(=O)Cc1csc(NC(=O)CCc2ccc(S(=O)(=O)N3CCOCC3)cc2)n1	4.6
O=C(CN1CCOCC1)Nc1ccc(-c2nc3ccccc3[nH]2)cc1	0.8
COC(=O)c1ccc(NC(=O)CN(c2ccc(OC)cc2)S(C)(=O)=O)cc1	i
CCOC(=O)CSC1=NC(=O)/C(=C\c2ccc(Cl)cc2)S1	3.2
O=C(NCc1ccccn1)C(C(=O)c1ccc(F)cc1)n1ccccc1=O (stereo unspecified)	0.1
CCOC(=O)c1c(N)n(C2CC(C)(C)NC(C)(C)C2)c2nc3ccccc3nc12	i
Cc1ccc(C2CN(C)C3(C(=O)Nc4ccccc43)C23COc2ccccc2C3=O)cc1 (stereo unspecified)	i
O=C1NC2(CCCC2)N=C1c1ccc(F)cc1	i
CC1CCN(c2nc3ccccc3nc2C(C#N)C(=O)OC2CCCCC2)CC1 (stereo unspecified)	1.2
O=C(Nc1nc2ccccc2n1CCOc1ccc(Cl)cc1)c1ccco1	i
CC(=O)c1cccc(NC(=O)CN(c2ccccc2F)S(C)(=O)=O)c1	1.3
CCCC1C(c2ccccc2)C(C#N)(C#N)C2(C#N)CC1(N)NC2=O (stereo unspecified)	i
COc1cc2c(cc1NC(C)=O)CCCC2	i
COc1cc(C(=O)Nc2nc(N)n(-c3ccccc3)n2)cc(OC)c1OC	i
CCOCCCNC(=O)c1ccc(OC(C)=O)cc1	3.0
Clc1ccc(NCc2nncn2-c2ccccc2)cc1	1.8
CCOc1ccc(-c2nnn(CC(=O)c3ccc4c(c3)OCCO4)n2)cc1	i
CC1=CC2=C(OC1N(C)C)c1cccc3cccc(c13)C2=O (stereo unspecified)	0.1
O=C(CSc1nnc2scc(-c3ccccc3)n12)NCc1ccc2c(c1)OCO2	2.0
Cc1cc(C(F)(F)F)nc(SCC(=O)c2cccc([N+](=O)[O-])c2)n1	1.7
Nc1nnc(SCC(=O)c2ccccc2)s1	0.5
Cc1cccc(OC(=O)CN2C(=O)C3C4CCC(C4)C3C2=O)c1C (stereo unspecified)	0.7
CCOc1cc(N2CCOCC2)c(OCC)cc1NC(=O)COC(=O)c1cc(C)oc1C	i
COc1ccccc1NC(=O)CSc1nnc(Cn2nnc(-c3ccccc3)n2)n1-c1ccccc1	i
O=C(Nc1cccnc1)c1noc2c1CCCCC2	i
CCN(CC)c1ccc2cc(C(=O)O)c(=O)oc2c1	0.3
CCCN(CCC)C(C(=O)Nc1cccc(OC)c1)c1ccccc1 (stereo unspecified)	7.1
COc1ccc(SCC(=O)c2cc(C)c(OC(=S)N(C)C)c(C)c2)cc1	i
CC(C(=O)NC1=NCCS1)N1C(=O)c2ccccc2C1=O (stereo unspecified)	i
CCOc1ccccc1NC(=O)C1CC(=O)n2ncnc2N1 (stereo unspecified)	i
CCOC(=O)CN1CC23C=CC(O2)C(C(=O)Nc2cc(OC)ccc2OC)C3C1=O (stereo unspecified)	0.3
CC1CCN(c2ccccc2NC(=S)NC(=O)c2cccs2)CC1	7.5
Cc1ccc(CNC(=O)c2cccc(OCc3c(C)noc3C)c2)cc1	i
CCN1C(=O)C(C(=O)Nc2ccc(OC)cc2)C2CC1(C)Oc1ccccc12 (stereo unspecified)	1.0
Cc1ccc2occ(C3N[C@H](C(=O)O)CS3)c(=O)c2c1 (stereo partly specified)	0.3
CCc1nc(SCC(=O)c2ccc3c(c2)OCCO3)c2ccccc2n1	i
CCNS(=O)(=O)c1ccc(OC)c(C)c1	0.1
O=C(O)C1CCCCN1S(=O)(=O)c1ccc2ccccc2c1 (stereo unspecified)	0.6
Cc1ccc(/C=N/NC(=O)CSCc2ccc(Cl)cc2)cc1	i
COc1cccc(OC)c1OCCCCCc1c(C)n[nH]c1C	i
CCN1C(=O)C2(C(C#N)=C(N)Oc3n[nH]c(-c4ccc(Cl)cc4)c32)c2ccccc21 (stereo unspecified)	i
COc1ccccc1NC(=O)N1CCCC1C(=O)NC12CC3CC(CC(C3)C1)C2 (stereo unspecified)	i
O=C1c2ccccc2C(=O)N1CSc1ncccn1	i
Cc1nn2c(-c3cccc(NC(=O)c4ccco4)c3)nnc2c2ccccc12	1.0
Cc1cccc(Nc2nc(N)nc(CSc3nccc(C)n3)n2)c1	i
Cc1cccc(C)c1NC(=O)/C(=C/c1ccco1)c1ccccc1	15
COc1cc(NC(=S)NC(=O)c2c(OC)cccc2OC)ccc1NC(=O)c1cccs1	0.6

Rewritten field by field: entries from further up
Structure: CCN(CC)c1ccc2cc(C(=O)O)c(=O)oc2c1
  H5N1 CPE: 0.3
Structure: O=C(O)C1CCCCN1S(=O)(=O)c1ccc2ccccc2c1 (stereo unspecified)
  H5N1 CPE: 0.6
Structure: COc1cccc(OC)c1OCCCCCc1c(C)n[nH]c1C
  H5N1 CPE: i

Continued.
SMILES	H5N1 CPE
CCN(CC)CCN1C(=O)C(=O)/C(=C(/O)c2ccc(OC)cc2)C1c1cccs1 (stereo unspecified)	i
O=C(CSc1nc(-c2ccccc2)cs1)N1CCc2ccccc21	i
COc1ccc(-c2ccc(/C=C3\C(=O)N(c4ccccc4)N=C3c3ccccc3)o2)c([N+](=O)[O-])c1	i
O=C(c1ccc(COc2ccccc2Br)o1)N1CCCCCC1	0.3
CCC(=O)N1CCc2cc(Br)cc(S(=O)(=O)N3CCN(C(=O)c4ccco4)CC3)c21	0.1
O=C1CC(Nc2ccc(N3CCOCC3)cc2)C(=O)N1CCc1ccccc1 (stereo unspecified)	2.1
COc1cc(C(=O)ON=C2C(C)=CC(=O)C=C2C)cc(OC)c1OC	i
COc1ccc(/C=N/n2c(=O)[nH]c3c([nH]c4ccc(Br)cc43)c2=O)cc1CN1CCOCC1	1.4
O=C(OCC(=O)c1c[nH]c2ccccc12)C1=COCCO1	0.7
COc1ccc(C2C(C(=O)N3CCCC3)CC(=O)N2c2ccc(OC)cc2)cc1 (stereo unspecified)	0.7
C=CCn1c(=NC(=O)C2CC2)sc2cc(NC(C)=O)ccc21	0.7
Nc1nc(N)nc(-c2ccc(Cl)cc2)n1	i
O=c1ccn(Cc2ccccc2)c(=O)n1Cc1ccccc1	0.5
COc1ccc(NC(C)=O)cc1NC(=O)CN1CCN(C(=O)c2ccco2)CC1	0.9
CCOC(=O)c1ccc(Cn2c(-c3ccccc3)nnc2-c2ccccc2)o1	1.2
CC(C)CC(=O)O/N=C1\C(=O)N(c2ccccc2)c2ccccc21	1.0
O=C(Nc1nnc(-c2ccccc2Cl)o1)c1nc2ccccc2s1	1.2
CCOC(=O)c1cc(C#N)c(SC)nc1-c1ccccc1	5.8
O=C1c2oc3ccccc3c(=O)c2C(c2ccccn2)N1Cc1ccccc1 (stereo unspecified)	i
COc1cccc(-c2nc(CS(=O)(=O)CC(=O)NCc3ccccc3OC)c(C)o2)c1	i
CC(=O)NCc1nc2ccccc2n1Cc1ccccc1F	i
[O-][n+]1onc2c3cc(-c4ccccc4)nnc3ccc21	5.4
CCCCCCc1ccc(-c2ncc(N)cn2)cc1	i
Cc1cc(NC(=O)c2ccc(F)cc2F)n(-c2nc3ccccc3[nH]2)n1	i
COc1ccc(S(=O)(=O)NCCCN2CCOCC2)c2ccccc12	2.1
COc1nc(/C(N)=N/O)nc(N2CCCCC2)n1	0.5
Cc1ccc(-c2nc3nc4ccccc4nc3n2Cc2ccco2)cc1	2.2
OC(COC(c1ccc(Cl)cc1)c1ccc(Cl)cc1)CN1CCCC1 (stereo unspecified)	i
O=c1c(-c2nc3ccccc3s2)cccn1Cc1ccc(Cl)cc1	1.3
CCC(C(=O)NC1CCCC1)N(Cc1ccc2c(c1)OCO2)C(=O)c1snc(C(N)=O)c1N (stereo unspecified)	i
CCOC(=O)c1sc2nc(C)cc(C)c2c1N	i
O=C(COc1ccc2ccccc2c1)NNC(=O)Cc1cccc2ccccc12	i
COC(=O)c1sc2nc(CSc3nc4ccc(C)cc4[nH]3)[nH]c(=O)c2c1C	i
Cc1ccc(C(=O)O/N=C\c2ccc(N3CCOCC3)c([N+](=O)[O-])c2)cc1	i
COc1ccccc1C1(CC(=O)O)CCOC(C)(C)C1 (stereo unspecified)	i
O=C1CCCCCCC1Sc1ccccc1[N+](=O)[O-] (stereo unspecified)	0.7
CCOC(=O)Nc1ccc(C)cc1NC(=O)OCC	i
CC(C)n1cnc2cc(NCc3ccco3)ccc21	i
COc1cc(C(=S)N2CCOCC2)cc(OC)c1OS(=O)(=O)c1ccc(NC(C)=O)cc1	i
COc1cc(OC)cc(C(=O)N2CCN(c3ccccc3F)CC2)c1	1.9
CCOC(=O)c1sc(-n2[nH]c(C)cc2=O)nc1C	i
CN(C)c1nc(OCCNC(=O)Nc2ccccc2)nc(N(C)C)n1	0.2
O=C(O)CNS(=O)(=O)c1ccc(Br)s1	i
Cc1ccc(/C=C/C2=Cc3c(sc(NC(=O)CSc4n[nH]c(N)n4)c3C#N)C(C)(C)C2)o1	5.2
CSc1ncccc1C(=O)OCC(=O)NC1CCS(=O)(=O)C1 (stereo unspecified)	i
COc1ccc(CCNC(=O)CN(c2ccccc2)S(C)(=O)=O)cc1OC	i
O=C(O)CCn1c(=O)c2ccccc2c2ccccc2c1=O	0.9
CN(C)c1nc(SCC#N)nc(N2CCOCC2)n1	i
CN1CCN(c2ccc(NC(=O)COc3ccccc3Cl)cc2)CC1	i
O=C(N1CCOCC1)N1CCN(S(=O)(=O)N2CCCCC2)CC1	0.4

Next part.
SMILES	H5N1 CPE
Cc1oc(-c2ccccc2F)nc1CSCC(=O)NCc1ccc2c(c1)OCO2	0.9
CC(C)(C)NC(=O)Cn1cc(C(=O)c2ccccc2F)c2ccccc21	i
C/C=C/c1c(F)c(F)c(Oc2ccc(C(=O)O)cc2)c(F)c1F	0.6
CSC(=NCCCN1CCOCC1)NS(=O)(=O)c1cccs1	i
Cc1ccc(S(=O)(=O)N2CCCC2C(=O)N2CCCCCC2)cc1 (stereo unspecified)	0.8
CC(=O)Nc1ccc(NC(=O)CSCc2cnn(-c3ccccc3)c2-n2cccc2)cc1	i
CC(C)CC1NC(=O)N(CC(=O)N2CCN(S(=O)(=O)c3ccc(Cl)cc3)CC2)C1=O (stereo unspecified)	1.0
Cc1nc2c(cnn2-c2ccccc2Cl)c(=O)n1-c1ccc(N2CCC(C)CC2)cc1	0.6
Cc1cc(Nc2ccc(F)cc2)nc(N)n1	i
CCCCCC(=O)N/N=C/c1ccc([N+](=O)[O-])o1	1.2
CCS(=O)(=O)Nc1ccc(Cc2ccc(NS(=O)(=O)CC)cc2)cc1	0.1
OCCNc1nc(C2CC2)nc2c1nnn2Cc1ccccc1Cl	i
Cc1cc(C(F)F)n2nc(C(=O)Nc3ccc(F)cc3F)nc2n1	i
COc1cc(OC)c(C(=O)NC2CCCCCC2)cc1OC	1.4
CC(C)Nc1ncnc2c1nnn2Cc1ccccc1	0.7
COc1ccc(S(=O)(=O)N2CCC(C(=O)NCCc3ccc4c(c3)OCO4)CC2)cc1	i
N#Cc1cccc(-n2nnnc2-c2ccccn2)c1	i
CCOC(=O)CNC(=O)Cn1cnc2c(nnn2-c2ccc(C)cc2)c1=O	i
Cn1nnc(C(O)CN2CCOCC2)n1 (stereo unspecified)	i
Cc1ccc(C)c(C(=O)CCC(=O)Nc2cccnc2)c1	0.1
CN(C)CCNC(=O)Cn1nc(-c2ccc(Cl)cc2)ccc1=O	i
Cc1cccc2cc(CN(CCCN3CCOCC3)Cc3nnnn3C(C)(C)C)c(=O)[nH]c12	0.6
Cc1cc(C)c(NC(=O)CS(=O)CC(=O)NCCCc2ccccc2)c(C)c1 (stereo unspecified)	0.7
O=C1C=C(NCc2ccc(Cl)cc2Cl)C2(CCCCC2)O1	i
O=C(N1CCC(O)(c2cccnc2)CC1)C12CC3CC(CC(C3)C1)C2	0.5
CC(C)NC(=O)C(=O)NC1CCCCCC1	i
Fc1ccc2nc3n(c2c1F)CCCCCC3	0.2
Cc1ccc(NC(NC(=O)c2ccccn2)C(Cl)(Cl)Cl)cc1 (stereo unspecified)	2.0
NC(=O)C1(N2CCCCC2)CCN(Cc2ccccc2Cl)CC1	i
CCOP1(=O)C=C(C(C)(C)C)OC1c1ccc(F)cc1 (stereo unspecified)	1.4
COc1ccc(OCC(=O)Nc2nc3ccccc3[nH]2)cc1	i
Cc1cc(NC(=O)CSc2nc3ccccc3n2CC(=O)N2CC(C)CC(C)C2)no1 (stereo unspecified)	i
COc1ccccc1-c1cc(C(F)(F)F)nc(S(=O)(=O)CCCC(=O)O)n1	i
COc1ccc(CC2C(=O)NC(=O)NC2=O)c(OC)c1	i
O=C(Oc1oc(-c2ccco2)nc1C=Nc1ccccc1)c1ccoc1	2.6
COc1ccc(Oc2nc(-c3ccccc3)ncc2S(=O)(=O)c2ccccc2)cc1	1.6

Only part of the results is shown; rates above refer to the full screens.
